Screening results (PubChem BioAssay)
Six1-Eya2 inh – blocks human Six1 binding to Eya2; actives 0.56% (n = 360,000); activity change, % (no concentration beside the values); AlphaScreen GST-Six1/His-Eya2 binding, biochemical; hits give low values; control for the full effect not named in the record; Q15475+O00167; in the data active = activity change below about -65%; inconclusive = about -30% to -65%; inactive = above about -30%; also: % is scaled to controls: 0 for no effect and ±100 for the full control effect; compound concentration not given in the record
Target sequence (O00167 whole entry, looked up): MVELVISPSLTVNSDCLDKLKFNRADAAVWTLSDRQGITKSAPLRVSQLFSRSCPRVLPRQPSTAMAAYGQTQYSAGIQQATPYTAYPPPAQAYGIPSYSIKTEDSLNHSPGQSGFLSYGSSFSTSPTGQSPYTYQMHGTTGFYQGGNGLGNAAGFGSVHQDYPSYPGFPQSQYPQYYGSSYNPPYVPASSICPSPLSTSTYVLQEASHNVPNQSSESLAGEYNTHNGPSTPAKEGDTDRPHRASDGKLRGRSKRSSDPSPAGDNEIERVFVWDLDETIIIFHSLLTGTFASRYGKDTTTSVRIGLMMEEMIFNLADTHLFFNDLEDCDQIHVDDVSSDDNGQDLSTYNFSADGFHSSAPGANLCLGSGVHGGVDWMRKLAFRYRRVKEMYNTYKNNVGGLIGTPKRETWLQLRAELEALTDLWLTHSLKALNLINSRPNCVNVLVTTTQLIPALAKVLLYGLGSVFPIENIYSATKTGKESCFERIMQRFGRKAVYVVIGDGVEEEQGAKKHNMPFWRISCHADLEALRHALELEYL
Target sequence (Q15475 whole entry, looked up): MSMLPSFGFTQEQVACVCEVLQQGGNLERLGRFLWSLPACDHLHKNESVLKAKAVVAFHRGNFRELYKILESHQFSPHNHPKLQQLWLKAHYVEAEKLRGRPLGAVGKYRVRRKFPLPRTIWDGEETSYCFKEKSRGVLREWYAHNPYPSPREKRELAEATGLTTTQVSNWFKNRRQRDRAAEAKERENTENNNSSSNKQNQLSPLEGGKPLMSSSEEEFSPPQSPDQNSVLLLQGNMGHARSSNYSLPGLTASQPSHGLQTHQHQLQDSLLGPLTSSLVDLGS
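Homogeneous AlphaScreen proximity assay pairing GST-Six1 with His-tagged Eya2 (added as 5X mix: 250 nM and 500 nM) in 50 mM Tris pH 8.0, 300 mM NaCl, 1 mM TCEP. Glutathione donor and nickel acceptor beads; 1 h, 37 °C, dark.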
TRPML1 agonist – agonists of human TRPML1 channel; Q9GZU1; TRPML1-expressing cells, Ca2+ dye fluorescence, FDSS; host cell line not named in the record; reference of the full effect not given here; activation, % (test concentration not listed); actives 0.12% (n = 410,000); in the data active = activation above about 50%; inconclusive = about 30% to 50%; inactive = below about 30%; also: 0% is about no effect; the text of the record puts the active cut at 80%
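TRPML1-DL cells, Tet-induced overnight (~16 h, 37 degrees C), loaded 45-90 min at room temperature with Ca8 no-wash calcium dye plus quencher. FDSS fluorescence: 10 s baseline, compound pin-transfer, 110 s agonist read, then EC80 54-4 (4uM final) and 110 s antagonist read.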
D2 ag – human D2 receptor agonism in beta-arrestin assay | DiscoveRx PathHunter D2 beta-arrestin, luminescence, 90 min; 100% = 57 uM dopamine signal | activation, % (no concentration beside the values) | actives 0.084% (n = 360,000) | AID 624465; in the data active = activation above about 40%; inconclusive = about 15% to 40%; inactive = below about 15%; also: compound concentration not given in the record; the text of the record calls up to 30% inactive
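Agonist mode: compounds alone added to overnight-plated D2 PathHunter cells for 90 min at 37 C, with 57 uM final dopamine (EC100) defining full response. Beta-arrestin recruitment detected by chemiluminescent reagent, read after 1 h at ambient temperature.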
CtBP-E1A blk – inhibitors of CtBP/E1A interaction; AlphaScreen GST-E1A/His-CtBP binding, 1536-well; hits give low values; control for the full effect not named in the record; activity change, % (no concentration beside the values); actives 0.49% (n = 340,000); in the data active means activity change below about -65%; inconclusive means about -30% to -65%; inactive means above about -30%; also: % is scaled to controls: 0 for no effect and ±100 for the full control effect; compound concentration not given in the record
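Steps: dispense buffer (Tris pH 8.0, NaCl 300 mM, TCEP 1 mM, BSA, Tween 20); add 5X protein mix (GST-E1A, His-CtBP, 125 nM each); pin 23 nL compound; 2 h at 37 °C, dark; add 5X beads (50 ug/mL); 1 h; read.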
PINK1 modulator – modulators of PINK1 expression; AID 624263; actives 0.2% (n = 410,000); Potency, µM (series often up to 76.6 µM), inactives show at the highest dose activation (PINK1 increase), usual class: activators; PINK1 immunofluorescence, high-content cytometry, 24 h; active = well fitted activation curve with a large enough effect; inconclusive = small, poorly fitted or top-dose-only effect; inactive = flat fitted curve, though single readings scatter; cell line not stated here;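 also: potency is read from the fitted curve at half-maximal effect; % of control where 0% means no effect; nearly all actives have a fitted effect of over 65% in size; a mitochondrial uncoupler was the plate control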
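PINK1 protein level read as immunofluorescence by microplate cytometer in a fixed, stained stable cell line after 24 h exposure to five compound concentrations, with CCCP as control.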
D2 PAM – potentiates the human D2 dopamine receptor allosterically; actives 0.23% (n = 360,000); potentiation, % (test concentration not listed); DiscoveRx D2 beta-arrestin cells, luminescence, 90 min; 100% = 57 uM dopamine signal; active = potentiation of 50% or more; inconclusive = 30% to 50%; inactive = 30% or less;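 also: compound concentration not given in the record; tested on top of an EC20 dose of dopamine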
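D2 cells co-treated with compound plus 50 nM dopamine (EC20) for 90 min at 37 deg C to detect potentiation. Beta-arrestin recruitment was read as enzyme-fragment luminescence after 1 h at ambient temperature. Full response was set by 57 uM dopamine.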
* marks the source's active call; other numbers are inactive results; · = not tested or not shown; & = joins results of further samples; [ ] = another dose, or the depositor's remark.

Preview:
SMILES	Six1-Eya2 inh	TRPML1 agonist	D2 ag	CtBP-E1A blk	PINK1 modulator	D2 PAM
CCCCN(CC)CCNC(=O)c1cc2c(=O)[nH]c3ccccc3c2n1C	-2	1.2&0.1	3.1	0	0.6%&-4.3%	-5
CS(=O)(=O)c1ccc(C2=C(c3ccccc3)C(=O)OC2)cc1	1	-0.6	2.8	1	-0.9%	-13

The list itself (from the top)
SMILES	Six1-Eya2 inh	TRPML1 agonist	D2 ag	CtBP-E1A blk	PINK1 modulator	D2 PAM
CCCCN(CC)CCNC(=O)c1cc2c(=O)[nH]c3ccccc3c2n1C	-2	1.2&0.1	3.1	0	0.6%&-4.3%	-5
CS(=O)(=O)c1ccc(C2=C(c3ccccc3)C(=O)OC2)cc1	1	-0.6	2.8	1	-0.9%	-13
COC(=O)c1ccc(NC(=S)NCC2CC2)cc1	0	-0.9	1.3	·	0.8%	0
Brc1cnc2nc[nH]c2c1	0	3.2	7.9	·	-1.8%	4
O=C(COC(=O)[C@H](Cc1c[nH]c2ccccc12)NC(=O)c1cccs1)NCc1ccccc1	3	4.3	-2.5	28	8.3%	-11
COc1ccc(C2(CNS(=O)(=O)c3ccccc3)CCOCC2)cc1	0	1.1	-7.1	·	-0.9%	-4
Cc1sc2ncnc(-n3nnc4ccccc43)c2c1C	10	0.4	-4.2	·	1.3%	-7
CCOC(=O)c1cc(C)sc1NC(=O)CN1CCN(C(=O)c2ccco2)CC1	-16	1.3	-3.7	2	0.7%	-2
CN(C(=O)c1cc(-n2cnnc2)ccc1Cl)c1ccccc1	6	0.8	-0.3	5	2.9%	1
Cc1cccc(-c2noc(CCC(=O)Nc3ccccc3)n2)c1	1	0.0	-2.3	17	4.1%[38.3 µM]	-18
COC(=O)C1(C)NC(c2ccc(F)cc2)C2C(=O)N(c3ccc(C)cc3)C(=O)C21 (stereo unspecified)	5	0.6	-2.0	11	-0.4%	-1
Cc1cccc(OCC(=O)N(Cc2ccco2)c2c(N)n(Cc3ccccc3)c(=O)[nH]c2=O)c1	4	0.2	-4.9	0	-0.4%	-3
CCn1c(CCNC(=O)c2ccccc2Cl)n[nH]c1=S	7	0.4	1.3	4	-1.0%	2
CCC(=O)Nc1ccc(Cl)c(NC(=O)c2cccnc2)c1	7	0.3	-3.9	2	·	4
CSc1ccccc1NC(=O)CSc1n[nH]c(N)n1	8	-1.2	-6.5	-7	2.8%	-3
COCCn1c(SCC(=O)Nc2sc(C)c(C)c2C#N)nnc1-c1ccc(OC)cc1	0	0.4	1.2	9	-4.1%[38.3 µM]	-4
Clc1ccc(Cn2nc(-c3ccccc3)nc2-c2ccccc2)cc1	6	2.5	1.6	8	22%	-9
O=C(CN(C(=O)c1ccccc1Cl)N1C(=O)CCCC1=O)c1ccc(Cl)cc1	-2	-0.8	-3.2	·	0.6%	-3
CCCN(CCC)Cc1c(C(=O)N/N=C/c2cccs2)nnn1-c1nonc1N	-8	1.3	-2.2	-7	8.2%	-8
COC(=O)c1ccc(C2/C(=C(/O)c3ccc(OC)cc3)C(=O)C(=O)N2CC2CCCO2)cc1 (stereo unspecified)	5	0.5	-1.2	1	15%[38.3 µM]	-4
COc1ccc(-c2nnc(SCC(=O)NC(=O)NCc3ccco3)o2)cc1	4	0.4	-1.4	1	8.3%	-2
NC(=O)c1cnn(-c2cccc(Cl)c2)c1N	7	0.7	0.3	·	-0.3%	-7
O=C(Cn1c2c(c(-c3ccccc3Cl)cc1=O)CCC2)NCCCN1CCOCC1	-1	0.5	0.6	-1	-0.5%	-5
OCCNCCSc1ccc(Cl)cc1	0	0.7	-0.7	·	0.9%	-10
COc1cccc(NC(=O)COC(=O)CCOc2ccccc2OC)c1	-1	0.0	-0.1	11	1.5%	-3
CC1c2c([nH]c3ccccc23)CCC1C(=O)O (stereo unspecified)	-11	0.7	-0.2	-4	3.7%	-4
Cc1ccccc1C1CC(=O)c2ccccc2C1C (stereo unspecified)	6	-0.5	-3.0	4	5.7%	3
COc1ccc(OCCN2CCC(C(=O)NC(c3ccc(Cl)cc3)c3ncccc3C)CC2)cc1 (stereo unspecified)	-22	-0.5	-2.1	-16	1.0%	-13
COc1ccc(-c2ccn(-c3cccc(F)n3)n2)cc1	-1	-0.9	-7.8	-2	2.4%	-9
C/C(N)=C(/C#N)C(=O)COC(=O)c1ccc(O)cc1	-5	-0.4	-4.6	-5	1.5%	-16
C[C@H](CO)N1C[C@H](C)[C@@H](CN(C)C(=O)Nc2ccccc2)Oc2c(NC(=O)Nc3ccc4c(c3)OCO4)cccc2C1=O	-6	-0.7	3.9	0	0.5%	3
O=C(NC1=NCCS1)c1cc(Cl)ccc1Cl	3	0.5	-1.3	7	7.9%	1
O=S(=O)(Nc1cccc(-c2nnco2)c1)c1ccc(F)cc1F	7	1.6	1.0	7	-0.3%	0
CC(=O)OC1CC2(C)C(C(C)=O)CCC2C2CCC3=CC(=O)CCC3(C)C12 (stereo unspecified)	7	0.2	-3.5	-2	1.1%	-2
Cc1cccc(NC(=O)N2C3CCCC2CC(NC(=O)C2CC2)C3)c1 (stereo unspecified)	4	1.7	-1.7	-16	-1.5%	-4
CC(=O)c1c(C)[nH]c(C(=O)Nc2cc(F)ccc2C)c1C	-1	-0.7	-4.1	6	1.8%	-4
CC1SC(c2ccccc2)N(CC(O)c2ccc([N+](=O)[O-])cc2)C1=O (stereo unspecified)	-4	0.3	-1.6	·	0.7%	-8
CCS(=O)(=O)n1nc(-c2ccc(C)cc2)nc1N	10	3.9	-2.4	-1	-1.3%	-12
CN(CC(=O)Nc1ccccn1)S(=O)(=O)c1ccc(Cl)cc1	1	3.1	0.2	-5	-1.9%	-15
C=CCC(NCc1ccccc1)c1ccco1 (stereo unspecified)	1	0.5	-3.0	12	-5.7%[38.3 µM]	2
Cc1ccc(NC(=O)Cn2nnc(-c3ccc4c(c3)OCO4)n2)cc1F	1	0.3	-2.8	4	1.0%	-4
CN1CCN(C(=O)c2ccccc2NS(=O)(=O)c2ccc(F)cc2)CC1	4	0.6	-3.4	-13	2.0%	-7
C/C(=N/O)c1cc(C(C)(C)C)c(O)c(C(C)(C)C)c1	-1	2.4	-2.7	-1	1.3%	-15
Cc1ccc(Cl)cc1NC(=O)COC(=O)CCN1C(=O)C2CC=CCC2C1=O (stereo unspecified)	-2	-0.6	2.4	11	1.7%	-8
C[C@H]1C[C@H]2[C@@H]3CCC4=CC(=O)C=C[C@]4(C)[C@@]3(Cl)[C@@H](O)C[C@]2(C)[C@@]1(O)C(=O)CO	-2	0.2	-3.8	1	0.7%	-2
COC(=O)c1ccccc1NC(NC(=O)c1ccco1)C(=O)c1ccc(C)cc1 (stereo unspecified)	-3	0.3	-1.3	2	5.8%	-2
CCOC(=O)CSc1nc(C2CC2)nc2ccccc12	1	0.9	0.9	-8	·	-4
Cc1ccc(-n2nc(-c3cccnc3)cc2C(=O)N2CCOCC2)c(C)c1	0	-0.3	-0.4	-3	-1.3%	-3
CSc1nnc(-c2ccccc2Cl)o1	-3	5.4	-0.5	9	1.0%	5
Cc1ccc2c(c1)CCCN2C(=O)C1CCCO1 (stereo unspecified)	0	-0.6	-5.0	3	-2.5%[38.3 µM]	-2
CC(C)(C)NC(=O)C(OC(=O)c1cccs1)c1ccc(F)cc1 (stereo unspecified)	-1	2.0	-4.0	·	2.0%	-1
Nc1nc2ccccc2n1CCOc1ccc(Cl)cc1	-3	0.2	0.0	-2	5.6%	-8
O=C(COc1nncc2ccccc12)NCCC1=CCCCC1	6	-1.1	0.1	7	1.5%	-3
COCCN(C(=O)COC(=O)c1cc2ccccc2cc1O)c1c(N)n(Cc2ccccc2)c(=O)[nH]c1=O	-3	-0.3	-1.1	6	1.4%	2
O=C(COC(=O)c1ccccc1NCCO)NNC(=O)c1cccs1	-1	1.2	-2.0	-1	1.8%	-67
CCCCNc1nc2c(S(=O)(=O)c3ccccc3)nnn2c2ccccc12	-2	-0.1	-0.9	0	-1.1%	-3

Later entries:
SMILES	Six1-Eya2 inh	TRPML1 agonist	D2 ag	CtBP-E1A blk	PINK1 modulator	D2 PAM
O=C(COC(=O)c1cc[n+]([O-])cc1)Nc1ccc(Cl)c(C(F)(F)F)c1	2	0.8	-1.9	-10	-1.0%	-3
C[C@H](CO)N1C[C@H](C)[C@@H](CN(C)Cc2ccc(Oc3ccccc3)cc2)OCc2cnnn2CCCC1=O	7	-0.5	-4.8	3	0.2%	-1
C[C@H](O)[C@@H]1C(=O)N2CCc3ccc(N4CCN(C)CC4)cc3[C@@H]2C[C@@H]1N(C)C(=O)Nc1cc(Cl)cc(Cl)c1	-11	0.7	0.0	-5	-1.8%	-4
COc1ccc2[nH]c3c(c2c1)CCN1C(=O)C(CC(=O)NCCCn2ccnc2)C[C@H](C(=O)N2CCOCC2)[C@@]31C (stereo partly specified)	2	-0.1	2.4	-12	0.1%	-3
CCOc1cc2[nH]c(=S)n(CCC(=O)N3CCc4ccccc4C3)c(=O)c2cc1OCC	2	-0.2	1.9	6	·	-1
COc1ccc(NC(=O)CCC(=O)c2ccc(Cl)cc2)cn1	0	-0.3	0.0	2	-0.7%	-4
CC(C)N1C(=O)C(=O)N(CC(=O)N2c3ccccc3CC2C)C1=O (stereo unspecified)	0	-0.8	-1.1	-1	0.9%	-5
CC(CC(=O)Nc1ccc2c(c1)OCCO2)c1ccccc1 (stereo unspecified)	1	1.5	-4.8	-2	-0.4%	-18
CN1C(CCl)Nc2cc(Cl)c(S(N)(=O)=O)cc2S1(=O)=O (stereo unspecified)	14	0.6	1.5	-2	-0.2%	-5
Cc1c(C(=O)NC2CCCc3ccccc32)oc2ccc(S(=O)(=O)N3CCCCC3)cc12 (stereo unspecified)	20	2.0	-1.0	7	26%	1
